HIV Env fusion: inhibitors of HIV Env-mediated cell fusion. HeLa-JRFL Env/CEM21 cell fusion, luciferase. inhibition, % at 12.3 µM. 360,000 tested, 1.1% active. AID 651610;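 active = mean replicate inhibition score of at least 50 and every replicate individually at or above 50; inconclusive = only one of the two criteria met; inactive = mean below 50 and not all replicates reaching 50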;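 note: 0% = plate neutral controls and 100% = maraviroc near 300 nM; one replicate is shown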
CSC inhib: cancer stem cell inhibition | cancer stem cell-like cells viability, luminescence | inhibition, % at 7.5 µM | 300,000 tested, 1.1% active | AID 2717;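 active = mean at 75% or more and at least half the replicates too; inconclusive = mean and replicates disagree; tested in HMLE shEcad cells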;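 note: 0% = median of negative and 100% = median of positive control wells; the first replicate is given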
eIF4H inh: inhibitors of RNA binding by human eIF4H; eIF4H fluorescence polarization binding assay; Q15056; inhibition, % at 35 µM; 290,000 tested, 0.94% active;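 active = 50% or more with normal probe brightness, or confirmed in later tests; inconclusive = above 50% with abnormal brightness, or retests that disagree; inactive = below 50% or failed in later tests; about a fifth of its hits are not listed in these tables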;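 note: calls also rest on retests at 20 µM and on dose response follow-up; 0% = protein and probe with vehicle and 100% = probe without protein; strong numbers were not always called active; many hits fall short of the cut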
MT1-MMP act inh: inhibitors of human MT1-MMP activation. P50281. HT1080 RFP-PRO-GFP cells, GFP/RFP ratio fluorescence, overnight; percent of plate control window, DMSO zero. GFP/RFP ratio change, % at 20 µM. 360,000 tested, 0.061% active. AID 651647;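 active = GFP/RFP ratio change of at least 30% with cell ATP level not reduced by more than half and red fluorescence within 50% of control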; note: strong numbers were not always called active
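Assay system: HT1080 cells carrying an RFP-PRO-GFP reporter | Dosing: Single dose of 20 µM compound, 1% DMSO final | Incubation: Cells overnight before dosing, compound overnight, 37 °C, 5% CO2 | Evaluation: GFP/RFP fluorescence ratio | Control set: DMSO and RFP-L50D-GFP cell wells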
Rce1 inh: yeast Ras-converting enzyme inhibition; Q03530; yeast membranes, quenched prenylated peptide cleavage fluorescence; calls only; 290,000 tested, 0.27% active; AID 2563;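 active = fall in fluorescence gain of 50% or more versus controls, with final raw signal at or below 3038400; inconclusive = same 50% fall but final raw signal above 3038400; inactive = fall in fluorescence gain under 50%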;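 note: plate controls were neutral control wells for no effect and wells lacking membranes for full effect; tested at 10 µM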
Target sequence (Q03530 whole entry, looked up): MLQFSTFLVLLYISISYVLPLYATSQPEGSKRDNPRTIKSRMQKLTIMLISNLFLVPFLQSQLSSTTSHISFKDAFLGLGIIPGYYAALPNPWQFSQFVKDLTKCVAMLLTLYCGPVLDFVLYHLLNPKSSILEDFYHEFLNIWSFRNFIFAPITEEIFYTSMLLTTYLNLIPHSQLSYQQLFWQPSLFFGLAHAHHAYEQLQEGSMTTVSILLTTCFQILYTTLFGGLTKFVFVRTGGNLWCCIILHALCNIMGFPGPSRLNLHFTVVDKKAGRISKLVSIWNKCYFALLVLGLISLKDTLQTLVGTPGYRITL
UUG fidelity: alters start codon recognition fidelity in yeast | S. cerevisiae UUG-firefly luciferase reporter, luminescence/redox ratio | activity score, % at 18.7 µM | 350,000 tested, 0.13% active;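 active = replicate mean at a twofold rise or more, about +100% in these data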;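 note: firefly luciferase made from a UUG start codon reports start codon fidelity; reporter light over untreated wells divided by growth signal over untreated wells; some hits fall short of that in this replicate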
PABP FP inh: PABP-poly(A) binding inhibition. inhibition, % at 35 µM. PABP-poly(A) RNA binding, fluorescence polarization. 290,000 tested, 1% active;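 active = 50% or more with normal probe brightness, or confirmed in later tests; inconclusive = above 50% with abnormal brightness, or retests that disagree; inactive = below 50% or failed in later tests; about a fifth of its hits are not listed in these tables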;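 note: calls also rest on retests at 20 µM and on dose response follow-up; controls were probe without protein and protein plus probe with vehicle; some compounds called inactive have numbers as strong as hits; many hits fall short of the cut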
MT1-MMP act inh RFP: second read-out of MT1-MMP act inh, no call of its own (marks repeat the call); RFP signal change, %; measured here: RFP expression control read;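 0 = vehicle wells; hits needed this value within 50% of zero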
Numbers without * were called inactive; i = inactive; ? = inconclusive; . = not tested or not shown; & = joins results of further samples; [ ] = another dose, or the depositor's remark.

SMILES	HIV Env fusion	CSC inhib	eIF4H inh	MT1-MMP act inh	MT1-MMP act inh RFP	Rce1 inh	UUG fidelity	PABP FP inh
COc1ccc(CN2CCN(c3ncnc4scc(-c5ccc(F)cc5)c34)CC2)cc1	14	11	-10	-9	-11	i	2	1
COc1ccc(NC(=O)CCSc2nnnn2C)cc1	-22	-14	11	0	-1	i	-16	-3
C=CCN1C(=O)N/C(=C/c2ccc(C)o2)C1=O	-12	4	25	-3	8	i	.	16
Cc1[nH]n(-c2ccccc2)c(=O)c1N=O	5	-17	-7	0	6	i	-6	-6
Cn1c(NCc2cccnc2)nc2cc(-c3cccc(C(=O)NCCO)c3)sc2c1=O	2	.	.	2	4	.	-2	.
CN(CC(=O)Nc1ccc(Cl)c(C(F)(F)F)c1)C(=O)C1CC(=O)N(C2CCCC2)C1 (configuration not stated)	27	-6	.	-1	-3	.	-15	.
O=C1COc2ccc(C(=O)CSc3nnnn3-c3ccccc3)cc2N1	.	-10	-2	6	2	i	-2	0
Cn1ccc(C(=O)Nc2ccc3c(c2)OCCO3)n1	-22	-10	5	0	5	i	-13	4
O=C(NC1=NCCS1)c1ccccc1OCc1ccccc1Cl	8	0	12	-4	-5	i	.	-19
CCOC(=O)c1nc(Nc2ccc(C(=O)O)cc2)c2ccccc2n1	.	-4	-4	4	1	i	-2	10
Cc1nn(C)c(C)c1NC(=O)c1ccc(S(=O)(=O)N(C)C)cc1	.	-2	-10	2	4	i	-15	4
O=C(CN1C(=O)NC2(CCCC2)C1=O)OCCOc1ccccc1Cl	1	-5	.	2	4	i	.	.
Cc1ccc(CNc2ccc(N3C(=O)CC(C)C3=O)cc2[N+](=O)[O-])cc1 (configuration not stated)	18	-3	5	10	4	i	.	10
COc1ccc(N2CCN(CC(=O)c3c(C)n(C)c4ccc(OC)cc34)CC2)cc1	22	-1	-4	-6	-3	i	-20	2
O=C(NC1=NCCS1)c1ccc(-c2ccc(Cl)cc2)o1	-175	-2	-1	4	0	i	-19	-6
N=C1C(c2ccccc2)=C(O)CN1c1cccc(S(=O)(=O)Nc2cccc(C(F)(F)F)c2)c1	-11	1	-8	4	-1	i	-16	10
O=C(Nc1ccc(F)cc1)NC1(C(=O)NCc2cccs2)CCCCC1	-24	-6	-9	2	9	i	-11	-6
COCC(=O)n1nc(-c2ccccc2)nc1NCc1ccccc1	-23	.	3	4	4	.	.	-12
CCc1ccc2c(c1)c1nc(C)sc1n2CC(=O)OC	-84	-5	4	8	-1	i	7	-6
C=CCn1c(SCC(=O)c2ccc(Br)cc2)nnc1C(CC(C)C)NC(=O)c1cccs1 (configuration not stated)	-14	-16	-2	-1	-2	i	-12	-11

Record cards (already shown). Screens in order: HIV Env fusion, CSC inhib, eIF4H inh, MT1-MMP act inh, MT1-MMP act inh RFP, Rce1 inh, UUG fidelity, PABP FP inh
`O=C(NC1=NCCS1)c1ccccc1OCc1ccccc1Cl` reads 8, 0, 12, -4, -5, i, ., -19
`O=C(NC1=NCCS1)c1ccc(-c2ccc(Cl)cc2)o1` reads -175, -2, -1, 4, 0, i, -19, -6
`O=C1COc2ccc(C(=O)CSc3nnnn3-c3ccccc3)cc2N1` reads ., -10, -2, 6, 2, i, -2, 0

Later entries.
SMILES	HIV Env fusion	CSC inhib	eIF4H inh	MT1-MMP act inh	MT1-MMP act inh RFP	Rce1 inh	UUG fidelity	PABP FP inh
Cc1nc2ccccc2c(=O)n1/N=C/c1ccccc1	.	-11	3	5	-1	i	-11	5
COc1cc(CCC(O)CC(=O)CCc2ccccc2)ccc1O (configuration not stated)	.	23	29	3	-2	i	-14	12
O=C(COc1ccc(Cl)cc1Cl)Nc1ccc(Cl)cn1	.	9	4	6	-1	i	-40	-2
COC(=O)c1cccc(NC(=O)c2cnccn2)c1	-1	-4	-3	-3	1	i	-20	10
Cc1ccc(OCc2cnc(Cl)s2)c(C)c1	-64	-13	-7	3	4	i	-6	1
N/C(=N\OC(=O)COc1ccc(Br)cc1)c1ccncc1	-38	-8	5	1	4	i	.	2
COc1ccccc1CN1C(=O)C(Cc2ccccc2)ON=C1c1ncccc1C (configuration not stated)	11	.	.	3	-1	.	-15	.
COc1cccc(OC)c1C(=O)N1CCN(Cc2ccccc2C(F)(F)F)CC1	.	-8	12	-3	-5	i	-11	21
CC1=C(C#N)C(C)C2=C(CC(C)(C)CC2=O)N1 (configuration not stated)	-2	6	3	0	2	i	-20	-2
C[C@@H]1CN([C@@H](C)CO)C(=O)CCCn2nncc2CO[C@H]1CN(C)S(=O)(=O)c1ccc(C#N)cc1	-9[16.7 µM]	.	.	3	7	.	-8	.
Cn1c(=O)[nH]c(=O)c2c1nc(SCCN1CCCCC1)n2Cc1ccccc1	.	-6	12	1	1	i	-3	-7
CCN(CC1CCCO1)C(=O)CCc1nnc(CCc2ccccc2)o1 (configuration not stated)	-59	.	.	-2	-3	.	-2	.
Cc1ccc(S(=O)(=O)c2c(N)n(CCCO)c3nc4ccccc4nc23)cc1	.	-18	1	-2	0	i	.	19
O=C(O)c1cnc(-c2ccccc2)nc1-c1ccccc1	24	2	-3	4	3	i	-12	9
COc1ccc(Cn2nnnc2C(c2cccs2)N2CCN(c3ccc([N+](=O)[O-])cc3)CC2)cc1 (configuration not stated)	0	-2	6	5	-4	i	-21	-5
CC1CCCN(S(=O)(=O)c2cccc(C(=O)NCc3ccco3)c2)C1 (configuration not stated)	-2	.	.	-1	0	.	-12	.
CC(=O)N1CCN(c2ccc(Oc3ccc([N+](=O)[O-])c(C(F)(F)F)c3)cc2)CC1	.	-4	3	-14	-30	i	60	9
COc1cc(NC(=O)CN2C(=O)COc3ccc(S(=O)(=O)N4CCCCC4)cc32)cc(OC)c1	3	-6	.	3	2	i	13	.
COC(=O)Cn1cc(C(=O)c2cccs2)c2ccccc21	-54	-13	-2	4	9	i	-18	-1
COc1cn(-c2ccccc2)nc1C(=O)Nc1ccc(C)cc1Cl	11	-10	-3	-7	-3	i	-16	1
CCOc1ccc(NC(=O)CCNS(=O)(=O)c2ccc(Br)s2)cc1	10	2	-8	1	2	i	-22	-2
O=C(NCc1ccc2c(c1)OCO2)c1ccc(N2CCCC2=O)cc1	-13	4	-1	0	4	i	-14	6
Cc1ccc(C(=O)CCC(=O)N2CCN(c3ccccc3O)CC2)cc1	31	13	.	0	-3	i	15	.
COc1ccc(CCC(=O)OCc2csc(CC(=O)Nc3ccccc3C)n2)cc1	13	-22	-9	-4	1	i	-12	3
COC(=O)c1c[nH]n2c(=O)c(Cc3ccc(F)cc3Cl)c(C)nc12	-84	2	-11	2	1	i	-9	-1
Cc1cccn2c(CNCC(C)Oc3cccnc3)c(C(=O)N3CCOCC3)nc12 (configuration not stated)	6	-18	-6	-4	0	i	-12	13
COc1ccccc1NS(=O)(=O)c1cc([N+](=O)[O-])ccc1N/N=C/c1c[nH]c2ccccc12	-51	68	7	-75	1	i	-13	10
O=C(Nc1ccncc1)c1ccc(Cl)cc1	-12	-12	-7	1	-7	i	4	9
O=C(CNCc1ccc(Cl)cc1)Nc1cc(S(=O)(=O)N2CCCC2)ccc1Cl	-20	.	.	-5	-14	.	-6	.
O=c1[nH]nc(SCCS(=O)(=O)c2ccc(F)cc2)n1-c1ccccc1C(F)(F)F	-8	14	-17	1	0	i	-12	-8
Cn1nnnc1SCc1ccc(C(=O)Nc2ccccc2F)cc1	.	.	-7	2	2	i	-3	5
CC(=O)c1cccc(S(=O)(=O)N2CCC(C(=O)O)CC2)c1	3	-4	0	-2	-1	i	.	-10
COc1ccc(C(=O)NCCn2cc(SCC(=O)NCC3CCCO3)c3ccccc32)cc1OC (configuration not stated)	-15	-3	0	0	-8	i	-18	1
CCN(CC)CCNC(=S)NC(=O)c1cn(-c2ccccc2)nc1-c1ccc(OC)cc1	3	-11	-6	-5	-3	i	.	-15
CCc1ccccc1NC(=S)N(Cc1cccs1)C1CCCC1	11	-13	11	3	2	i	.	13
Cc1ccc(C)c(NC(=O)CSc2nc3ccc(N4C(=O)c5ccccc5C4=O)cc3s2)c1	17	14	-4	-9	-4	i	-28	-4
CCC(=O)Nc1c(-c2ccc(C)cc2)nc2ccc(C)cn12	-2	-2	5	3	7	i	-14	-11
O=C(O)COc1ccc(C(=O)Cc2ccc3c(c2)OCCCO3)c(O)c1	.	13	-6	0	1	i	2	13
Cc1scc(C(=O)NNC(=O)CCC(=O)O)c1C	.	-13	4	-2	3	i	2	-2
CCc1c(-c2n[nH]c(=S)n2Cc2ccccc2)csc1C	3	0	-6	-2	-2	i	.	-4
Cc1cccc(N2CCN(C(c3ccccc3)c3nnnn3CC3CCCO3)CC2)c1C (configuration not stated)	.	3	5	-28	-25	i	-2	-7
CCCCN(C(=O)C(C)Oc1ccc(Br)cc1)c1c(N)n(Cc2ccccc2)c(=O)[nH]c1=O (configuration not stated)	1	2	-9	-9	-12	i	1	-12
CCn1c(Cc2ccccc2)n[nH]c1=S	-6	-1	-6	1	-1	i	-29	-1
CCN(Cc1ccccc1)S(=O)(=O)c1ccc2c(c1)NC(=O)CS2	-2	8	-2	7	-5	i	15	-2
O=C(CNc1cccc(S(=O)(=O)N2CCCCCC2)c1)Nc1cccc([N+](=O)[O-])c1	10	.	.	16	-11	.	-9	.
C[C@@H]1CN([C@@H](C)CO)C(=O)CCCn2nncc2CO[C@H]1CN(C)C(=O)Nc1ccccc1F	11	.	.	1	4	.	-19&5	.
CCOc1ccc2c(c1)-c1c(ssc1=S)C(C)(C)N2	.	71	12	19	0	i	.	7
O=C(c1cccnc1)N1CCN(S(=O)(=O)c2ccc(Cl)cc2)CC1	-4	-12	-1	2	-1	i	-9	9
CCc1nc2ccc(C(=O)N(C)CCCN(C)C)cn2c1N(C=O)CCC(C)C	22	.	.	-1	1	.	-18	.
C=CC[C@H](CC(=O)NCCO)C(=O)NCCOC(=O)[C@@H](CC=C)CC(=O)OC(C)(C)C	13	.	.	-1	3	.	-16	.
COc1ccc2cc(C#N)c(SCC(=O)N3CCCC3)nc2c1	-39	1	2	-1	-6	i	-12	4
Cc1ccccc1NC(=S)N(Cc1ccccc1)Cc1cccnc1	-10	8	-1	-3	-2	i	.	2
Cc1sc2ncnc(NCc3cccs3)c2c1C	?	-11	-10	12	-11	i	-1	6
CCOc1ccccc1NC(=O)Nc1cnccn1	8	-11	0	-10	-7	i	.	8
CCc1ccc(NC(=O)C(=O)NCCN2CCN(C(=O)c3ccco3)CC2)cc1	.	16	9	-2	-4	i	-10	-5
CCN1C(=O)[C@H]2[C@@H](c3ccc(-c4cc(C(C)=O)cs4)cc3)N3CCC[C@@]3(C(=O)OC)[C@H]2C1=O	24	-14	.	0	-5	.	-15	.
CCCNC(=O)CN1C(=O)NC(CCSC)C1=O (configuration not stated)	-3	-17	9	-5	2	i	-15	10
CCOC(=O)c1[nH]c2ccccc2c1NC(=O)C(CC)CC	34	-4	4	-4	3	i	2	-2
CC1Cc2ccccc2N1C(=O)Cc1cccs1 (configuration not stated)	12	6	-5	2	2	i	-18	-15
COc1ccc(OC)c(NC(=O)C(=O)NCc2ccncc2)c1	1	-11	9	2	1	i	-12	3
NC(=O)c1ccsc1NC(=O)COC(=O)/C=C/c1ccccc1	8	-7	.	-2	-4	i	-18	.
Cc1nc2sc(C(c3cccc(F)c3)N3CCOCC3)c(O)n2n1 (configuration not stated)	.	.	-7	-2	-1	i	-15	-4

Screening results deposited in PubChem BioAssay by several laboratories.

Not all compounds are listed; count on the stated rates, not on these rows.
